High-throughput results deposited in PubChem BioAssay by National Center for Advancing Translational Sciences (NCATS).
Sfp PPTase inh = blocks B. subtilis Sfp PPTase activity | Q9F4F7 | Biochemical Sfp PPTase activity, qHTS | Potency, µM, without a hit: max response, negative = inhibition, most hits filed as inhibitors | 310,000 tested, 3.5% active | AID 1490; active means well fitted inhibition curve with a large enough effect; inconclusive means small, poorly fitted or top-dose-only effect, or another doubt; inactive means no such curve, though single readings can be large or run the other way;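 further: the enzyme is Sfp with the accession as filed and its product quenches rhodamine fluorescence; potency means the concentration at half of the fitted maximal effect; 0% = enzyme reaction without inhibitor and -100% = no enzyme wells; top concentration of the series not given in the record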
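Buffer: 50 mM Hepes-Na pH 7.6, 10 mM MgCl2, 0.01% Nonidet P-40, 0.01% BSA. Enzyme 15 nM, pre-exposed to compound 15 min; substrates then added and fluorescence change tracked over 30 min.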
Menin MLL FP FL = inhibitors of human menin-MLL interaction, wild-type MLL peptide; Fluorescence polarization, fluorescein-MLL peptide displacement from menin; FP activity change, % at 61.4 µM; 290,000 tested, under 10 active; AID 1766; inconclusive = falling polarisation curve, or a change in total fluorescence; inactive = total fluorescence flat and polarisation flat or rising; no compound was filed as active; the % refers to the polarisation; negative = inhibition;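 further: % of control where 0% means no effect; inhibitors lower the polarisation; unlabelled MLL peptide was the positive control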
CtBP-E1A blk = blocks the CtBP interaction with E1A. AlphaScreen GST-E1A/His-CtBP binding, 1536-well; stronger effect = lower value; control for the full effect not named in the record. activity change, % (test concentration not listed). 340,000 tested, 0.49% active. AID 651724; in the data active means activity change below about -65%; inconclusive means about -30% to -65%; inactive means above about -30%; further: on the % scale 0 is the no-effect control and ±100 the full control effect; compound concentration not given in the record
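Protein mix (5X: 125 nM each GST-E1A, His-CtBP) was incubated with pinned compound 2 h at 37 deg C in dark, in 50 mM Tris pH 8.0 buffer with 300 mM NaCl. Glutathione donor and nickel acceptor beads followed; AlphaScreen signal read after 1 h.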
ClpP mod = qHTS Assay for Activators of ClpP; ATP-dependent Clp protease proteolytic subunit (Bacillus subtilis (strain 168)), P80244; purified B. subtilis ClpP, FRET peptide cleavage, 20 min; Potency, µM (top dose mostly 57.5 µM), inactives show at the highest dose activity change, negative = active; 340,000 tested, 1.9% active; active = well fitted falling curve with a large enough effect; inconclusive = small, poorly fitted or top-dose-only effect; inactive = no such curve, though single readings can be large or run the other way; further: potency means the concentration at half of the fitted maximal effect; the source files actives as falling curves though it sought activators and does not explain the sign; nearly all actives have a fitted effect of over 65% in size; many hits overshoot -100%
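ClpP 10 microg/mL final, pH 8 Tris/KCl buffer with BSA, glycerol, Tween-20; compound pinned in; FRET-FV substrate; RT 20 min; Ex320/Em430; ΔFRET vs ADEP 5.8 microM, DMSO, no enzyme.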
gsp antag = gsp mutant antagonism | gsp-mutant cells, cAMP HTRF, 30 min; control for the full effect not named in the record | Potency, µM (top dose mostly 76.9 µM), inactives show at the top dose activity change, negative = inhibition, usual class: inhibitors | 340,000 tested, 0.4% active; active = falling curve of any shape with a large fitted effect; inconclusive = falling curve, mostly with a smaller effect; inactive = flat or rising curve; cell line not stated here;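 further: intracellular cAMP measured with PDE inhibitor Ro 20-1724 present during compound exposure; potency means the concentration at half of the fitted maximal effect; on the % scale 0 is the no-effect control and ±100 the full control effect; nearly all actives have a fitted effect of over 65% in size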
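HTRF cAMP measurement after 30 min RT detection following 30 min, 37C compound treatment alongside […] (added as 300 uM solution) in G418-selected cells seeded at 2000/well and grown 16–24 h.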
gsp agonist = gsp mutant agonism; gsp mutant cells, cAMP HTRF, 30 min; control for the full effect not named in the record; Potency, µM (top dose mostly 76.9 µM), inactives show top-dose activation (cAMP increase), actives largely listed as activators; 340,000 tested, 0.13% active; AID 624287; active = well fitted activation curve with a large enough effect; inconclusive = small, poorly fitted or top-dose-only effect, or another doubt; inactive = no such curve, though single readings can be large or run the other way; cell line not stated here;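 further: phosphodiesterase inhibitor Ro 20-1724 added with compounds to block cAMP breakdown; potency means the concentration at half of the fitted maximal effect; nearly all actives have a fitted effect of over 60% in size; about a fifth of the inactives were tested at one dose only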
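Cells stably selected in G418 were plated at 2000/well, grown 16-24 hr, then given compounds in DMSO with the PDE inhibitor […] (300 uM solution added) for 30 min at 37C; cAMP was read by HTRF.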
TRPV1 potentiator = human TRPV1 potentiation | Q8NER1 | TRPV1-expressing cells, Fluo-8 calcium influx, capsaicin EC20 potentiation; host cell line not named in the record; control for the full effect not named in the record | AID 540277 | potentiation, % at 8.33 µM | 320,000 tested, 0.02% active; active means potentiation above 80%; inconclusive means 30% to 80%; inactive means below 30%; further: 0% is about no effect
Target sequence (Q8NER1 whole entry, looked up): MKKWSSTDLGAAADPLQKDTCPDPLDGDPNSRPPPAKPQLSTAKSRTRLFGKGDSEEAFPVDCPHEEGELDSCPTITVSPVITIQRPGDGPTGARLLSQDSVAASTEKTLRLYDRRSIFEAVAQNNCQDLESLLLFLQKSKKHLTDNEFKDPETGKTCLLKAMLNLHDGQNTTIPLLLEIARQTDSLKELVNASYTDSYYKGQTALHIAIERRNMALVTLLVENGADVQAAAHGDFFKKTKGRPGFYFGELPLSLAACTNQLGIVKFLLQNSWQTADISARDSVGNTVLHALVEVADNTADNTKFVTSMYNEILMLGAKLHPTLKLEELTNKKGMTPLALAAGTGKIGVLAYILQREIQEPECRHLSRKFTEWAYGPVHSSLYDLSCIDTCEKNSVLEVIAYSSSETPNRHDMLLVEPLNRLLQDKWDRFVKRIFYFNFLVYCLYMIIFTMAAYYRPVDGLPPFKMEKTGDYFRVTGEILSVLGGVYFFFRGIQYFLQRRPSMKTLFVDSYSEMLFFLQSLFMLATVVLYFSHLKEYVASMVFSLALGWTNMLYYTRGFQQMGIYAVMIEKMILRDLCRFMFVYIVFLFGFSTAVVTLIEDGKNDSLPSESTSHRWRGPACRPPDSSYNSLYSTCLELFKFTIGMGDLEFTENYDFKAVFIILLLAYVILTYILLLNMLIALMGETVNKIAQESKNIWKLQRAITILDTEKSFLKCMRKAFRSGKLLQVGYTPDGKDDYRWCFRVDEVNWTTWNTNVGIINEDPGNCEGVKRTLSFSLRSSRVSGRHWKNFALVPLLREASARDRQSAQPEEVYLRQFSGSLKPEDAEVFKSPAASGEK
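Fluo-8 calcium influx in TRPV1-expressing cells, kinetic read (ex 480/em 520 nm). Compound added and read 3 min for agonist activity, followed by capsaicin at EC20 final and 2 min further read for enhancement.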
An asterisk follows results filed as active; ? = inconclusive; . = not tested or not shown; [ ] = another dose, or the depositor's remark. The order is random. Share with any hit: about 5.3%.

SMILES	Sfp PPTase inh	Menin MLL FP FL	CtBP-E1A blk	ClpP mod	gsp antag	gsp agonist	TRPV1 potentiator
CCC(C(=O)Nc1ccccc1C(=O)N1CCCC1)N1C(=O)c2ccccc2C1=O (stereo not given)	8%	1.6	5	2.0%	8%	-38%[inhibitor]	-8
Cc1ccc2nc(Nc3nc(CSc4nnnn4-c4ccccc4)cc(=O)[nH]3)nc(C)c2c1	9%	1.6	6	2.4%	6%	6%	?
CCCNC(=O)c1nc(C)n(-c2cc(Cl)ccc2Cl)n1	-1%	7.5	6	.	-4%	-5%[15.4 µM]	6
COc1cccc(/C=C/C(=O)OCC(=O)NC2CCCCCCC2)c1	.	.	1	0.8%	2%	13%[15.4 µM]	.
CCN(CC)C(=O)COc1ccc2oc(C)c(C(=O)OC(C)C)c2c1	2%	0.4	1	-1.4%	-15%	-17%	-3
O=C(O)CC1(CC(=O)Nc2ccc(F)cc2F)CCCCC1	4%	-2.1	.	0.1%	-21%	-12%	9
Cn1nc(C(F)(F)F)c(-c2cccc(C(F)(F)F)c2)c1NC(=O)c1nccnc1C(=O)O	-4%	-0.3	-5	.	0%	-6%	-26
Cc1cccc(NC(=O)C2c3ccccc3Oc3ccccc32)n1	-2%	1.1	13	-0.2%	-15%	-14%	15
CC(=O)c1nn(-c2cccc(Br)c2)cc1C(=O)c1cccc2ccccc12	?	6.0	-2	1.2%	-1%	-5%	-17
COc1ccc([C@H]2[C@H](C(C)=O)N3N=Cc4ccccc4C3C23C(=O)OC(C)(C)OC3=O)cc1 (stereo not given in full)	3%	.	-21	0.4%	-9%	5%[15.4 µM]	0
CCc1cccc(C)c1NC(=O)CN1C(=O)NC(C)(CCC(C)C)C1=O (stereo not given)	.	.	2	.	4%	-21%	.
CCOc1ccc2[nH]c(=O)c(CN(CCCO)S(=O)(=O)c3ccc(F)cc3)cc2c1	2%	0.7	-2	.	-5%	-23%	3
Cc1cc(OCC(=O)NNC(=O)c2cnccn2)cc(C)c1Cl	18%	-6.1	-17	2.3%	-10%	?	0
O=C(Cc1ccc([N+](=O)[O-])cc1)Nc1cccc(C(=O)N2CCCC2)c1	.	.	1	1.0%	-14%	-37%[inhibitor]	.
COc1ccc(NC(=O)c2ccc3ncsc3c2)cc1	0%	0.3	0	-2.9%	5%	-12%	-11
O=C(NC1CCS(=O)(=O)C1)c1cccc(Br)c1 (stereo not given)	.	.	2	-23%	4%	-12%[15.4 µM]	4
COc1ccc(NC(=O)CCSc2nc(C)cs2)cc1	-5%	-2.9	-1	-1.4%	11%	-30%[15.4 µM]	-28
Cc1c(C(=O)N/N=C/c2cccc(O)c2)nnn1-c1nonc1N	27%	-0.3	3	-0.4%	-4%	7%	4
COc1ccc(CN(C)C(=O)c2cccc(S(=O)(=O)N3CCCc4ccccc43)c2)c(OC)c1OC	.	.	-1	0.2%	?	-7%	.
CN(C)C=NC(=O)/C(C#N)=C1\CCc2ccccc2N1	10%	-0.1	-1	-4.1%	-1%	-14%	-8
COc1cc(C(C)=O)ccc1OCC(=O)Nc1cc(Cl)ccc1-n1cncn1	.	.	3	-4.3%	8%	?	?
COc1ccc(NC(=O)COc2nc(N(C)C)nc(N(C)C)n2)cc1	4%	0.2	-1	-1.6%	3%	-44%	0
C=CCOn1c(=O)c(-c2ccc(C)cc2)[n+]([O-])c2ccccc21	21%	1.2	3	0.0%	8%	12%[15.4 µM]	-4
COCCCNC(=S)NNC(=O)c1ccc(S(=O)(=O)N2CCC(C)CC2)cc1	31%	1.3	7	.	-6%	-8%[15.4 µM]	-2
COc1ccccc1NC(=O)C(C)OC(=O)CCCN=C1NS(=O)(=O)c2ccccc21 (stereo not given)	.	.	0	1.0%	1%	?	14
COCCSc1ccccc1C(=O)NCC1CCCO1 (stereo not given)	?	2.6	8	1.3%	-1%	-1%	-23
O=C1CC[C@@H](CN(Cc2ccccc2)Cc2cn[nH]c2-c2cc3ccccc3o2)N1	3%	-1.2	14	-11%	-5%	-2%[15.4 µM]	0
Cc1cc(C(C)(C)C)cc(C)c1COC(=O)c1cccnc1	-15%	-1.0	12	.	-10%	-3%	-1
O=C(O)c1ccc2c(c1)C(=O)N(Cc1ccco1)C2=O	0%	-4.8	0	0.2%	-7%	-13%[15.4 µM]	-3
Nc1nonc1-n1nnc(C(=O)N/N=C/c2cccc(F)c2)c1-c1ccccc1	9%	-5.3	-1	0.7%	-16%	-11%[15.4 µM]	-6
O=C(CSc1ncnc2c1cnn2-c1ccc(F)cc1)NC1CCCC1	?	.	0	-3.8%	-4%	5%[15.4 µM]	4
Cc1ccc(S(=O)(=O)c2cc3c(=O)n4ccccc4nc3n(CCCN3CCOCC3)c2=N)cc1C	-5%	1.0	-25	3.4%	-7%	4%	-17
Cc1ccc(C)c(NC(=S)N(CCc2ccncc2)C(C)C)c1	7%	0.3	4	.	10%	-1%	-1
CCc1nc(SCC(=O)NNC(=O)C(C)C)c2ccccc2n1	4%	-3.3	-7	-1.2%	17%	?	8
COc1ccc(CNC(=O)N2CCc3ccccc3C2)cc1	9%	0.0	-7	.	4%	-3%[15.4 µM]	-12
CC(=O)CCc1oc2c([N+](=O)[O-])cccc2c1-c1ccc(C)o1	8.9µM*	-4.5	-19	-2.1%	-18%	4%	-2
COc1cc2c(cc1OC)CN(C(=O)C(CCSC)NS(=O)(=O)c1ccc(C)cc1)CC2 (stereo not given)	15%	0.8	3	.	-3%	-16%	-4
CC(C)CNC(=O)NC(=O)COc1ncnc2sccc12	23%	3.7	6	-1.3%	4%	12%	2
Cc1ccc(-c2ccc(CN3C(CC(C)C)C(=O)N(Cc4cn(Cc5ccco5)nn4)CCS3(=O)=O)cc2)cc1 (stereo not given)	.	.	6	-1.2%	.	-1%	.
CC1(c2ccccc2)NC(=O)N(CC(=O)Nc2ccc(S(N)(=O)=O)cc2)C1=O (stereo not given)	2%	-2.5	0	.	2%	6%[15.4 µM]	-1
CCOC(=O)c1nnc(-c2ccccc2)nc1N1CC(C)OC(C)C1 (stereo not given)	-19%	0.1	7	.	-19%	0%[15.4 µM]	-15
Cc1[nH]nc2c1C1(C(=O)Nc3ccc([N+](=O)[O-])cc31)C(C#N)=C(N)O2 (stereo not given)	17%	3.6	-15	-1.0%	-7%	3%	11
COc1ccc(CC(=O)N(C)Cc2cccc(OC)c2OC)cc1S(=O)(=O)N1CCOCC1	.	.	6	4.5%	6%	21%	22
COc1ccc(/C=C(/NC(C)=O)C(=O)O)cc1	7%	3.1	-3	0.9%	10%	-33%[inhibitor]	2
COc1ccc(C(=O)CSc2nnc(CC(=O)Nc3ccccc3OC)n2C)cc1	9%	0.6	-1	.	0%	3%[15.4 µM]	-11
O=C(C1CCN(C2CCN(C/C=C/c3ccccc3)CC2)CC1)N1CCOCC1	17%	0.8	-8	.	8%	-21%	0
C=C(C)CNC(=S)N/N=C(\C)c1cccc(NC(C)=O)c1	-6%	-0.8	-3	.	-16%	14%[15.4 µM]	4
